A488 autofl: qHTS Assay for Spectroscopic Profiling in A488 Spectral Region; max dye equivalency, M; compound autofluorescence, A488 spectral region, dye equivalency; active compounds read high; hit rate 0.1% among 59,000; active = above 10 nM dye equivalent; inconclusive = 1 to 10 nM; inactive = 1 nM or less; about half of its hits are not listed in these tables;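 note: highest value over a series up to 38 µM; compound alone in buffer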
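Spectroscopic profiling in the A488 region: compounds in pH 8.0 Tris (100 mM), 15 min RT, CCD imaging with 480 nm excitation and 540 nm emission; responses normalized against A488 dye standards.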
A647 fluor: qHTS Assay for Spectroscopic Profiling in A647 Spectral Region. Compound fluorescence, A647 channel (570/671 nm), Tris buffer. 59,000 tested, under 10 active. max dye-equivalent concentration, M. AID 592, 2007; active means above 1 µM dye equivalent; inconclusive means 0.1 to 1 µM; inactive means 0.1 µM or less;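 note: values scaled relative to a standard on each plate; highest value over a series up to 38 µM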
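Spectral profiling of library compounds in pH 8.0 Tris: 15 min room-temperature incubation, single ex/em pair (570/671 nm), response normalized to Alexa 647 equivalents.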
Resorufin fluor: qHTS Assay for Spectroscopic Profiling in Resorufin Spectral Region. max dye-equivalent concentration, M. AID 588, 2007. hit rate 0.04% among 59,000. Compound fluorescence, resorufin region 547/598 nm, buffer; active compounds read high; active = above 10 nM dye equivalent; inconclusive = 1 to 10 nM; inactive = 1 nM or less; a few of its hits are not listed in these tables; note: highest value over a series up to 38 µM
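Dye-equivalent concentration values derive from comparing each well's 547/598 nm fluorescence against resorufin standards included on every plate. Incubation was 15 min at room temperature in 100 mM Tris, pH 8.0.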
AID923: qHTS Assay for Allosteric/Competitive Inhibitors of Caspase-1: Spectroscopic Profiling in AFC Spectral Region; compound fluorescence, AFC spectral region (405/520 nm); almost no hit is shown here; Potency, µM (top dose mostly 57.5 µM), for the others: top-dose fluorescence increase, hits mostly activators; hit rate 1.1% among 75,000; active = well fitted activation curve with a large enough effect; inconclusive = small, poorly fitted or top-dose-only effect;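 note: potency is the fitted concentration of half-maximal effect; 0% is about no effect; scaled to a free AFC standard on each plate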
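Baseline compound fluorescence (AFC region, 405 nm ex/520 nm em) taken from the intercept of kinetic reads with 50 nM caspase-1 and 5 uM Ac-WEHD-AFC; normalized to an on-plate AFC standard curve; compounds titrated up to 57 uM.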
TSHR ag: qHTS Assay for Agonists of the Thyroid Stimulating Hormone Receptor | hit rate 0.48% among 73,000 | HEK293-CNG-TSHR cells (CNG channel as cAMP sensor), membrane potential dye, cAMP | AID 926, 2007 | Potency, µM (titrated, usually from 57.1 µM), for inactives: top-dose activation, usual class: activators | Thyrotropin receptor (Homo sapiens), P16473; active = well fitted activation curve of enough size with the parental cells flat; inconclusive = any curve in the parental cells; inactive = parental cells flat and receptor cells flat or falling; note: potency is the fitted concentration of half-maximal effect; % of control where 0% means no effect; weak receptor curves with flat parental cells got no call and are not listed
Target sequence (P16473 whole entry, looked up): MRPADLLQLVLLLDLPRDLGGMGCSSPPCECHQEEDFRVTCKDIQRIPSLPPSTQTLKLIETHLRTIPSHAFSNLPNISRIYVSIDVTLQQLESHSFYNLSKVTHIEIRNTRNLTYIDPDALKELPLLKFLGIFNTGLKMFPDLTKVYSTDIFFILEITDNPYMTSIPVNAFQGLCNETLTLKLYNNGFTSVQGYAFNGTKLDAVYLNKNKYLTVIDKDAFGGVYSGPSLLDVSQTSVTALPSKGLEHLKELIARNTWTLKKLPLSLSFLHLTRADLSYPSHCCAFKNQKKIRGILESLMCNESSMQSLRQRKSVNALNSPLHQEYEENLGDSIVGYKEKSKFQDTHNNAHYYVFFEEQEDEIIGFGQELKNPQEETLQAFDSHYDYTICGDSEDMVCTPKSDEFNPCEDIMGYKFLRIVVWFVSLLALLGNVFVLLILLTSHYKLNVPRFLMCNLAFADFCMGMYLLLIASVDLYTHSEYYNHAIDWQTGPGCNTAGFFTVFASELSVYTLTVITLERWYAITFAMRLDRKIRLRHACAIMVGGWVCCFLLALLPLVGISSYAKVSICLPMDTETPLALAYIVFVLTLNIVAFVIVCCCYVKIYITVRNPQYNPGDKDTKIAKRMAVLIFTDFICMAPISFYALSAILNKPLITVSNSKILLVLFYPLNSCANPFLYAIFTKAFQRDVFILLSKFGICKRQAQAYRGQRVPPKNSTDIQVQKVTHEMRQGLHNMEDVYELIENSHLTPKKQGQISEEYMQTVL
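cAMP rise detected as CNG-channel membrane depolarization by fluorescent dye (emission 590 nm), 30 min after compound, following 60 min dye loading containing 100 uM RO 20-1724 at room temperature. Cells: TSHR/CNG HEK 293, with parental CNG HEK 293 as control.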
* marks the source's active call; other numbers are inactive results; i = inactive; ? = inconclusive; . = not tested or not shown; [ ] = dose if it differs, or a comment. A portion of the library, so the mix of outcomes need not match the whole.

Structure	AID923	Resorufin fluor	A488 autofl	TSHR ag	A647 fluor
COc1ccc(N2CCN(c3nc(NCCc4ccc(OC)c(OC)c4)nc(OC)n3)CC2)cc1	-1.2%	i	i	?	1e-09
Cc1ccccc1Cn1nc(C)c(NC(=O)c2cc(-c3cccs3)on2)c1C	0.7%	i	i	2.1%	1e-09
Nc1cc(N)nc(SCc2cccnc2)n1	1.3%	i	i	-5.6%	2.98e-08
CCOc1ccc(-c2[nH]ncc2Oc2ccccc2OCC)c(O)c1	-0.3%	i	i	18.9%	3.3e-08
CNc1ccc(C(O)(C(F)(F)F)C(F)(F)F)cc1C(O)(C(F)(F)F)C(F)(F)F	2.1%	i	i	-32.4%[inhibitor]	3.26e-08
Cc1cc(C)nc(N2CCCC(C(=O)NCCc3ccc(F)cc3)C2)n1 (configuration not stated)	0.0%	i	i	7.5%	3.28e-08
CCOC(=O)C(C)Sc1nnc(Cc2cc(=O)[nH]c(=O)[nH]2)n1-c1cccc(OC)c1 (configuration not stated)	-0.9%	.	.	4.2%	.
NC(=O)CSc1nnc(-c2cc3ccccc3o2)n1Cc1ccccc1	2.3%	i	i	?	3.2e-08
CCOc1ccc(-n2c3nc4ccccc4nc3c3c(=O)n(Cc4ccco4)cnc32)cc1	.	i	i	.	4.75e-08
Cc1ccc(OCc2nnc(NC(=O)c3ccco3)s2)c(C)c1	.	i	i	.	1e-09
COCC(=O)N1CCC[C@@]2(CCN(c3ncccn3)C2)C1	0.5%	i	i	-2.6%	8.1e-09
COc1ccc(NC(=O)CCNC(=O)Cn2cnc3ccccc3c2=O)c(OC)c1	2.2%	i	i	-1.3%	1e-09
C[C@@]1(C(NC(=O)Cc2ccccc2)c2ccc(-c3ccccc3)cc2)C[C@H]1C1CCCCC1 (some centres not stated)	1.5%	.	.	7.0%	.
CC(=O)Nc1ccc(S(=O)(=O)N(C)S(=O)(=O)c2ccc(F)cc2)cc1	0.7%	i	i	-5.5%	1e-09
COc1ccc(Cl)cc1NC(=O)CSc1ncnc2c1oc1ccccc12	-1.4%	i	i	22.4%	1.2e-09
CCOc1ccccc1Nc1nnc(SCC(=O)Nc2cc(C)on2)s1	-0.1%	i	i	-5.8%	5.8e-09
CCOc1ccc(S(=O)(=O)NCCCN2CCOCC2)c2ccccc12	-1.2%	.	.	?	.
CC(=O)c1cnc2nc(C)nn2c1C	0.8%	i	i	1.5%	1.36e-08
CCNC(=O)N1CCN(CCCC(c2ccc(F)cc2)c2ccc(F)cc2)CC1	4.3%	i	i	?	5.31e-08
CC(=O)Nc1ccc(C2NC(C(=O)O)CCC2C)cc1 (configuration not stated)	1.4%[11.5 µM]	.	.	-3.3%[11.4 µM]	.

(list continues)
Structure	AID923	Resorufin fluor	A488 autofl	TSHR ag	A647 fluor
COC(=O)[C@H](C)NC(=O)NCc1ccccc1F	-0.2%	i	i	-6.4%	1.2e-09
O=C(CSc1ccc2nnc(-c3ccccn3)n2n1)NCC1CCCO1 (configuration not stated)	-2.2%	.	.	9.2%	.
CCOC(=O)N1CCC(NC(=O)c2cc3cc4cc(OC)ccc4nc3o2)CC1	2.8%	i	i	7.5%	3.5e-09
CN(C)CCNC(=O)NC1CCCCC1	-0.8%	.	.	-4.2%	.
COc1ccccc1C(=O)Oc1ccc(N2C(=O)CCC2=O)cc1	1.1%	i	i	-1.2%	3.5e-09
CCn1c(SCC(=O)N2CCN(c3ccc(Cl)cc3)CC2)nc2ccccc2c1=O	4.5%	i	i	8.3%	1e-09
O=C(COc1ccc2c(c1)OCO2)Nc1ccc2c(c1)oc1ccccc12	3.3%	i	i	6.3%	5.7e-09
COc1ccc(-c2cc(C(=O)N/N=C/c3ccc(O)cc3)[nH]n2)cc1	4.9%	.	.	10.1%	.
CCCCCN(C(=O)NC(=O)NCCCC)S(C)(=O)=O	-2.5%	i	i	-0.5%[11.4 µM]	4.8e-09
O=C(NCCn1cccc1)c1cccc2ccccc12	1.8%	i	i	7.1%	1e-09
COC(=O)c1c(NC(=O)CSc2nncs2)sc2c1CCCCC2	0.2%	i	i	?	5.68e-08
O=C(c1ccc(COc2c(F)c(F)c(F)c(F)c2F)o1)N1CCOCC1	1.3%	i	i	.	8.8e-09
N#Cc1ccc(COc2ccc(CCO)cc2-n2nc3ccccc3n2)cc1	-0.6%	i	i	3.8%	8.1e-09
O=S(=O)(NC1CCCCC1NS(=O)(=O)c1ccc(F)cc1)c1ccc(F)cc1 (configuration not stated)	-0.5%	i	i	2.8%	2.41e-08
CCOc1ccc(Oc2nc(NCC(C)C)nc(N(C)C)n2)nn1	-0.6%	i	i	8.2%	3.3e-08
Clc1ccc2oc(-c3ccccc3)nc2c1	0.2%	.	.	13.4%	.
CCC(=O)OCc1cc2cccc(C)c2[nH]c1=O	1.0%	i	i	12.4%	3.88e-08
O=C1NCCCC1C(=O)N1CCN(C(=O)C2CCCNC2=O)CC1 (configuration not stated)	1.6%	i	i	-1.2%[11.4 µM]	1e-09
FC(F)(F)c1ccc2c(c1)nc1n2CCCC1	0.6%	i	i	0.2%[11.4 µM]	1.26e-08
O=C1c2ccccc2S(=O)(=O)N1CC(O)Cn1c2ccccc2c2ccccc21 (configuration not stated)	0.8%	.	.	?	.

Remaining list, next part
Structure	AID923	Resorufin fluor	A488 autofl	TSHR ag	A647 fluor
Cc1c(/C(O)=C2/C(=O)C(=O)N(CCCN3CCOCC3)C2c2ccncc2)cnn1-c1ccccc1 (configuration not stated)	.	i	i	.	3.2e-09
O=C(NCc1cccs1)C1CCCN(S(=O)(=O)c2cccs2)C1 (configuration not stated)	-0.4%	i	i	4.6%	2.1e-09
CC(=O)Nc1ccc(S(=O)(=O)NC2(C(F)(F)F)NC(=O)N(C3CCCC3)C2=O)cc1 (configuration not stated)	-1.2%	i	i	-3.8%	1e-09
Oc1c(C(c2ccco2)N2CCN(C(c3ccccc3)c3ccccc3)CC2)sc2ncnn12 (configuration not stated)	-3.1%	.	.	3.6%	.
O=C(CSc1ncnc2c1oc1ccccc12)N1CCCc2ccccc21	-0.6%	i	i	?	1e-09
COC(=O)c1[nH]c2c(c1C)C(=O)CC(c1ccccc1)C2 (configuration not stated)	-0.1%	i	i	5.0%	7.75e-08
Cc1ccccc1OCC(=O)Nc1ccc2c(c1)OCO2	-0.6%	i	i	8.3%	1.99e-08
COc1ccc(-c2nn(C)c3sc(C(=O)NCc4ccco4)cc23)cc1OC	0.9%	i	i	-1.4%	1e-09
COc1ccc(C(c2c(O)ccc3ccccc23)N2CCOCC2)c(OC)c1 (configuration not stated)	2.3%	i	i	21.0%	3.3e-09
Cc1ccc(-n2nnnc2SC(C)C(=O)Nc2ccc(Cl)cn2)cc1 (configuration not stated)	1.0%	i	i	?	1.83e-08
Cc1noc(C)c1S(=O)(=O)N1CCC(C(=O)N2CCN(c3ccc(F)cc3)CC2)CC1	0.2%	i	i	-2.5%	4.2e-09
O=C(CSc1nnc(-c2cccs2)n1-c1ccccc1)NCC1CCCO1 (configuration not stated)	0.2%	i	i	?	2.37e-08
O=C1Nc2cc(Cl)cnc2N2CCCC12 (configuration not stated)	3.2%	.	.	-9.2%	.
COc1ccc(N(CC(=O)NC2CCCCC2)S(=O)(=O)c2cccnc2)cc1	1.0%	.	.	23.0%	.
O=C(O)[C@@H]1CCCN1Cc1ccc2c(c1)OCO2	-3.3%[11.5 µM]	i	i	-2.7%[11.4 µM]	1e-09
Cn1c(=O)c2cc(S(=O)(=O)N3CCC(c4ccccc4)CC3)ccc2n(C)c1=O	1.3%	i	i	15.8%	1e-09
CC(=O)Nc1ccc(N=Cc2nc(-c3ccc(C)cc3)oc2O)cc1	3.5%	i	i	-10.9%	1e-09
O=C(CN1C(=O)c2ccccc2C1=O)Nc1ccccc1C(=O)N1CCCC1	-0.7%	i	i	-5.9%	2.51e-08
Cc1c(C(=O)O)oc2ccc(S(=O)(=O)NCc3ccc4c(c3)OCO4)cc12	-0.6%	i	i	3.1%	1e-09
O=S(=O)(c1ccccc1)N1CCC2(CCN(c3cccc(-c4ccccc4)c3)CC2)CC1	1.3%	i	i	1.5%	2.4e-09

Record cards, from the list above. Order of screens: AID923	Resorufin fluor	A488 autofl	TSHR ag	A647 fluor
`CCC(=O)OCc1cc2cccc(C)c2[nH]c1=O` as listed: 1.0%	i	i	12.4%	3.88e-08
`COc1ccc(NC(=O)CCNC(=O)Cn2cnc3ccccc3c2=O)c(OC)c1` as listed: 2.2%	i	i	-1.3%	1e-09

Next part:
Structure	AID923	Resorufin fluor	A488 autofl	TSHR ag	A647 fluor
CCc1nc2ccccc2c(=O)n1CCCCn1c(CC)nc2ccccc2c1=O	0.5%	i	i	-2.5%	1.2e-09
CCOC(=O)N1CCN(S(=O)(=O)/C=C/c2ccccc2)CC1	-1.6%	.	.	-4.4%	.
Cc1nc2ccc(S(=O)(=O)NC(C(=O)NCc3cccs3)C(C)C)cc2s1 (configuration not stated)	1.0%	.	.	3.5%	.
CC(=O)Nc1ccc2c(c1)nc(CCN1CCOCC1)n2C	-1.9%	i	i	4.5%	1e-09
O=C(CCSCCc1ccncc1)NCCCN1CCOCC1	-1.0%	i	i	-10.4%	1e-09
O=C(NCc1ccncc1)c1nnc(Cc2c(F)cccc2Cl)o1	-0.9%	i	i	0.5%	1e-09
O=C1OC(=O)c2c(Cl)c(Cl)c(Cl)c(Cl)c21	1.2%	.	.	?	.
Cc1ccc(-c2nnc(SCC(=O)Nc3ccccc3F)o2)cc1	-1.5%	.	.	16.0%	.
O=C(CN1CCN(S(=O)(=O)c2ccc(Cl)cc2)CC1)Nc1ccc2c(c1)OCCO2	-1.5%	i	i	20.1%	3.35e-08
O=C(c1cccs1)n1nc(-c2ccccc2)nc1NCc1ccco1	-0.3%	i	i	.	4e-09
CC(=O)C1=C(O)C(=O)N(CCCCCC(=O)O)C1c1ccc(N(C)C)cc1 (configuration not stated)	-1.0%	i	i	?	5.6e-09
CCCn1c(CCC(=O)O)ccc1-c1ccc(F)cc1	8.6%	i	i	-0.7%	4.26e-08
O=C1NCCCC1C(=O)N1CCN(C(c2ccccc2)c2ccccc2)CC1 (configuration not stated)	0.4%	.	.	16.8%[11.4 µM]	.
c1ccc(CCNc2nc3ccccc3n3nnnc23)cc1	2.6%	i	i	0.7%	4.31e-08
CCOC(=O)Cn1c(C)c(C#N)c2ccccc21	-1.1%	i	i	19.2%	3.49e-08
CCN1CCN(c2ncc3c(n2)CC(c2cc(OC)c(OC)c(OC)c2)CC3=O)CC1 (configuration not stated)	-0.2%	i	i	?	2.82e-08
COC(=O)c1ccccc1NC(=O)c1ccccc1OC	0.6%	i	i	?	2.39e-08
Cc1nc2ccc(Br)cn2c(=O)c1Cl	1.5%	.	.	7.0%	.
O=C(Cc1ccc(Br)cc1)c1ccc(O)cc1O	-1.4%	.	.	0.3%	.
COc1ccc(OC)c(S(=O)(=O)N2CCC(C(=O)NCc3ccccc3OC)CC2)c1	1.6%	i	i	3.2%	1e-09
